NPYLR7 agonist = activates Aedes aegypti NPYLR7 receptor. HEK293T NPYLR7/Galpha15, GCaMP6s calcium fluorescence. activation, % at 10 µM. actives 0.15% (n = 270,000); in the data active means activation above about 40%;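 further: 0% = vehicle and 100% = reference agonist at the receptor; some compounds past the cut are filed as inactive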
NPYLR7 agonist max-min = second read-out of NPYLR7 agonist, no call of its own (marks repeat the call); activation, %; measured here: Max-Min RFU normalised activation; some inactives read as strong as hits;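 span of the calcium signal over five minutes; 0% = vehicle and 100% = native peptide agonist; compound fluorescence can raise it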
Starred values were filed as active, the others as inactive; & = joins results of further samples. Some of the compounds tested; count on the stated rates, not on these rows.

> O=C(c1cccc(S(=O)(=O)N2CCCCC2)c1)N1C2CCC1CC2
  NPYLR7 agonist: 7; NPYLR7 agonist max-min: 6

> CCC(CC)n1ncc(C(=O)O)c1C
  NPYLR7 agonist: 1; NPYLR7 agonist max-min: 0

> COc1cc(C2c3c(c4ccccc4oc3=O)OC(=N)C2C#N)ccc1O (stereo not given)
  NPYLR7 agonist: -17; NPYLR7 agonist max-min: -21

> CSCC[Si]12OCCN(CCO1)CCO2
  NPYLR7 agonist: -8; NPYLR7 agonist max-min: -10

> O=C(COc1ccccc1F)N1CCN(CCc2nc(-c3cccs3)cs2)CC1
  NPYLR7 agonist: 0; NPYLR7 agonist max-min: -2

> COC(=O)C1C(=N)Oc2cc(C)[nH]c(=O)c2C12C(=O)N(CC(C)C)c1ccccc12 (stereo not given)
  NPYLR7 agonist: -3; NPYLR7 agonist max-min: -8

> COc1c(C)cc(C(=O)C2CCCN(Cc3ccncc3)C2)cc1C (stereo not given)
  NPYLR7 agonist: 2; NPYLR7 agonist max-min: -1

> Fc1ccc(N2CCNCC2)cc1
  NPYLR7 agonist: 16; NPYLR7 agonist max-min: 17

> O=C(CN1CC2CCCCCCC21)NCC1CC1 (stereo not given)
  NPYLR7 agonist: -2; NPYLR7 agonist max-min: -2

> C=CCOC(CN1CCN(C(=O)Cc2cccs2)CC1)c1cccc(OC)c1 (stereo not given)
  NPYLR7 agonist: -3; NPYLR7 agonist max-min: 10

> Cc1cc(C)c2sc(N3CCNCC3)nc2c1
  NPYLR7 agonist: -5; NPYLR7 agonist max-min: -7

> O=C(Cc1c(F)cccc1F)N1CCN(Cc2cccc(-c3noc(-c4ccco4)n3)c2)CC1
  NPYLR7 agonist: 17; NPYLR7 agonist max-min: 9

> c1csc(CNC2=NCCS2)c1
  NPYLR7 agonist: -7&-4; NPYLR7 agonist max-min: -12&-10

> Clc1ccc2sc(C3CCNCC3)nc2c1
  NPYLR7 agonist: -2; NPYLR7 agonist max-min: 6

> COc1ccc2c(c[n+](C)c3c4cc5c(cc4ccc23)OCO5)c1OC
  NPYLR7 agonist: 5; NPYLR7 agonist max-min: -4

> CC(C)CN1CCN(Cc2ccccc2OC(F)F)CC1CCO (stereo not given)
  NPYLR7 agonist: 4; NPYLR7 agonist max-min: 3

> N#Cc1ccc(NC(=O)CN2CCN(c3ccc(O)cc3)CC2)cc1Cl
  NPYLR7 agonist: 2; NPYLR7 agonist max-min: 0

> CN(C)P(=Nc1ccccc1)(NCCN1CC1)N(C)C
  NPYLR7 agonist: 9; NPYLR7 agonist max-min: 5

> O=C(Nc1ccc2c(c1)OCCO2)OCC(F)(F)F
  NPYLR7 agonist: -4; NPYLR7 agonist max-min: -5

> COc1cc2c(c(OC)c1)C(=O)OC(C)CCCC(=O)CCCCC2 (stereo not given)
  NPYLR7 agonist: 1; NPYLR7 agonist max-min: 0

> CN1C(=O)C(=Cc2cccn2-c2cccc([N+](=O)[O-])c2)C(=O)N(C)C1=O
  NPYLR7 agonist: 0; NPYLR7 agonist max-min: -1

> Cc1cccc(-n2nc(-c3ccccc3)c3c2N(CC(=O)NCC2CCCO2)C(=O)CSC3c2cccs2)c1 (stereo not given)
  NPYLR7 agonist: 9; NPYLR7 agonist max-min: 0

> Cc1ccsc1C(=O)C1CCCN(Cc2nc(-c3cccs3)oc2C)C1 (stereo not given)
  NPYLR7 agonist: 22; NPYLR7 agonist max-min: 19

> c1cncc(CNCCc2ccc3c(c2)OCO3)c1
  NPYLR7 agonist: 4; NPYLR7 agonist max-min: 3

> CNC(C)Cc1ccccc1OC (stereo not given)
  NPYLR7 agonist: -10; NPYLR7 agonist max-min: -24

> CC(C(=O)c1ccccc1)N(C)C (stereo not given)
  NPYLR7 agonist: -18; NPYLR7 agonist max-min: -25

> CC(=O)C1=C(O)C(=O)N(C)C12C(=O)Nc1ccccc12 (stereo not given)
  NPYLR7 agonist: -3; NPYLR7 agonist max-min: -7

> COCCN(CCOC)P(=S)(C=C(Cl)c1ccccc1)C=C(Cl)c1ccccc1
  NPYLR7 agonist: 9; NPYLR7 agonist max-min: 6

> Cc1noc(C)c1CNc1ccc(C#N)c(Cl)c1
  NPYLR7 agonist: -3; NPYLR7 agonist max-min: -4

> CCC(Cn1ccnc1)NC(=O)c1cn(C)c2ccccc12 (stereo not given)
  NPYLR7 agonist: -1; NPYLR7 agonist max-min: -1

> N#CC1(c2ccccc2)CCN(C(=O)Nc2ccc(Cl)c(C(F)(F)F)c2)CC1
  NPYLR7 agonist: -3; NPYLR7 agonist max-min: -4

> C[C@@H]1O[C@H](C[N+](C)(C)C)C[C@H]1O
  NPYLR7 agonist: 40; NPYLR7 agonist max-min: -23

> Oc1cccc2cccnc12
  NPYLR7 agonist: -10; NPYLR7 agonist max-min: -17

> CCOP(=O)(Oc1ccccc1)c1c([N+](=O)[O-])cc(C(F)(F)F)cc1[N+](=O)[O-] (stereo not given)
  NPYLR7 agonist: -9; NPYLR7 agonist max-min: -13

> COCc1nc(-c2ccc(CN3CCN(C(=O)Cc4cccc(OC)c4)CC3)cc2)no1
  NPYLR7 agonist: -3; NPYLR7 agonist max-min: 2

> NCCc1nc2cc(F)ccc2s1
  NPYLR7 agonist: -19; NPYLR7 agonist max-min: -19

> CC(=O)OCC(=O)[C@H]1CC[C@H]2[C@@H]3CC[C@H]4C[C@H](O)CC[C@]4(C)[C@H]3C(=O)C[C@]12C
  NPYLR7 agonist: -1; NPYLR7 agonist max-min: -16

> O=C1NC(=S)NC(=O)C1=Cc1ccc(F)cc1
  NPYLR7 agonist: -17; NPYLR7 agonist max-min: -21

> NC1=NC(=O)NC(=O)C1Br (stereo not given)
  NPYLR7 agonist: -2; NPYLR7 agonist max-min: 4

> O=C1N=c2ccccc2=CC1=Cc1c(O)[nH]c(=S)[nH]c1=O
  NPYLR7 agonist: -6; NPYLR7 agonist max-min: -9

> CC(C)n1[nH]c(=O)c2c1NC(=O)CSC2c1ccc(OCc2ccccc2)cc1 (stereo not given)
  NPYLR7 agonist: -1; NPYLR7 agonist max-min: 3

> Cc1ccc(NC(=O)c2cccn(Cc3ccccc3C)c2=O)c(C)c1
  NPYLR7 agonist: 14; NPYLR7 agonist max-min: 3

> O=S1(=O)CC2(N3CCOCC3)CCCCC21 (stereo not given)
  NPYLR7 agonist: -10; NPYLR7 agonist max-min: -17

> Cc1cccc2cc(CNC(C)Cc3ccco3)c(Cl)nc12 (stereo not given)
  NPYLR7 agonist: 1; NPYLR7 agonist max-min: 1

> O=C(NCCCCc1ccccn1)C1CC2(CCNCC2)CN1 (stereo not given)
  NPYLR7 agonist: -3; NPYLR7 agonist max-min: -6

> CSCC(=O)Nc1ccc2n(c1=O)C[C@H]1C[C@@H]2CN(CCCc2ccccc2)C1
  NPYLR7 agonist: -15; NPYLR7 agonist max-min: -19

> COc1cccc2c1cc([N+](=O)[O-])c1c(C(=O)O)cc3c(c12)OCO3
  NPYLR7 agonist: -5; NPYLR7 agonist max-min: -12

> C#CC(C)(C)NC(=O)c1nn(Cc2ccc(S(C)(=O)=O)cc2)c2ccccc12
  NPYLR7 agonist: 6; NPYLR7 agonist max-min: 11

> COP1(=S)C(=C2N(C)c3ccccc3C2(C)C)C=NN1C (stereo not given)
  NPYLR7 agonist: 1&6; NPYLR7 agonist max-min: -1&14

> CCOP(=O)(OCC)C(CC(=O)OC)C(=O)OC (stereo not given)
  NPYLR7 agonist: 0; NPYLR7 agonist max-min: 16

An excerpt from above in order of molar mass, low to high.
> Oc1cccc2cccnc12
  NPYLR7 agonist: -10; NPYLR7 agonist max-min: -17

> CCC(Cn1ccnc1)NC(=O)c1cn(C)c2ccccc12 (stereo not given)
  NPYLR7 agonist: -1; NPYLR7 agonist max-min: -1

> Cc1cccc2cc(CNC(C)Cc3ccco3)c(Cl)nc12 (stereo not given)
  NPYLR7 agonist: 1; NPYLR7 agonist max-min: 1

> O=C(NCCCCc1ccccn1)C1CC2(CCNCC2)CN1 (stereo not given)
  NPYLR7 agonist: -3; NPYLR7 agonist max-min: -6

> COc1cccc2c1cc([N+](=O)[O-])c1c(C(=O)O)cc3c(c12)OCO3
  NPYLR7 agonist: -5; NPYLR7 agonist max-min: -12

Shown bar-delimited: entries from further up.
canonical_smiles | NPYLR7 agonist | NPYLR7 agonist max-min
CSCC(=O)Nc1ccc2n(c1=O)C[C@H]1C[C@@H]2CN(CCCc2ccccc2)C1 | -15 | -19
COc1cccc2c1cc([N+](=O)[O-])c1c(C(=O)O)cc3c(c12)OCO3 | -5 | -12
C#CC(C)(C)NC(=O)c1nn(Cc2ccc(S(C)(=O)=O)cc2)c2ccccc12 | 6 | 11
COP1(=S)C(=C2N(C)c3ccccc3C2(C)C)C=NN1C (stereo not given) | 1&6 | -1&14
CCOP(=O)(OCC)C(CC(=O)OC)C(=O)OC (stereo not given) | 0 | 16

Next section
> CCC1(C)CC(=O)NC(=O)C1
  NPYLR7 agonist: 6&-3; NPYLR7 agonist max-min: 11&-8

> Cc1ccc(S(=O)(=O)N[C@@H](CCCCN)C(=O)CCl)cc1
  NPYLR7 agonist: 2; NPYLR7 agonist max-min: -26

> Fc1cccnc1CN1C[C@@H]2[C@H](C1)[C@H]1CC[C@@H]2O1
  NPYLR7 agonist: 7; NPYLR7 agonist max-min: 5

> CNc1ccc(C(=O)CC(O)CCC(C)C2OC(=O)CC(O)CC(=O)CC(O)CC(O)CC(O)CC(O)CC3(O)CC(O)C(C(=O)OC)C(CC(O[C@@H]4O[C@H](C)[C@@H](O)[C@H](N)[C@@H]4O)/C=C/C=C/C=C/C=C/C=C/C=C/C=C/C2C)O3)cc1 (stereo not given in full)
  NPYLR7 agonist: -14; NPYLR7 agonist max-min: -18

> CC(=O)NS(=O)(=O)c1ccc(NC(=O)c2cccn(Cc3cccc(F)c3)c2=O)cc1
  NPYLR7 agonist: 14; NPYLR7 agonist max-min: 3

> COC(=O)C1C(c2ccccc2)C2(c3ccccc3)C(C)(C)C12C(=O)OC (stereo not given)
  NPYLR7 agonist: 10; NPYLR7 agonist max-min: 5

> O=C(c1ccnc(-n2cnnc2)c1)N1CCCC2(CCNC2)C1 (stereo not given)
  NPYLR7 agonist: 22; NPYLR7 agonist max-min: 5

> CCOc1ccc(C(C)=O)cc1Cc1c(O)[nH]c(=S)[nH]c1=O
  NPYLR7 agonist: 3; NPYLR7 agonist max-min: 2

> c1cc(OC2CCCC2)ccc1NC1CN2CCC1CC2 (stereo not given)
  NPYLR7 agonist: 3; NPYLR7 agonist max-min: 0

> O=S(=O)(c1cc(F)cc(F)c1)N1CCN(CCOC(c2ccc(F)cc2)c2ccc(F)cc2)CC1
  NPYLR7 agonist: 4; NPYLR7 agonist max-min: 1

> CC(Cc1ccc(Cl)cc1Cl)NC(=O)CCn1ccnn1 (stereo not given)
  NPYLR7 agonist: 0; NPYLR7 agonist max-min: -3

> CCOC(=O)[C@H]1CN(C(=O)c2ccc(F)cc2)[C@]2(C)C(=O)N(CC3CC3)c3ccccc3[C@H]12
  NPYLR7 agonist: -11; NPYLR7 agonist max-min: -2

> COc1ccc(-n2c(-c3cccc4ccccc34)nc3ccccc3c2=O)cc1
  NPYLR7 agonist: 0; NPYLR7 agonist max-min: -2

> Cc1cc(OC(=O)N2CCCCC2)c(C(C)C)cc1[N+](C)(C)C
  NPYLR7 agonist: -2; NPYLR7 agonist max-min: -10

> CCCNc1ncc(CN2C[C@@H](c3ccccc3)[C@@H]3[C@H]2C2CCN3CC2)cn1
  NPYLR7 agonist: 12; NPYLR7 agonist max-min: 7

Profiles, quoted from the list:
Profile of CCOc1ccc(C(C)=O)cc1Cc1c(O)[nH]c(=S)[nH]c1=O = NPYLR7 agonist = 3; NPYLR7 agonist max-min = 2
Profile of O=C(c1ccnc(-n2cnnc2)c1)N1CCCC2(CCNC2)C1 (stereo not given) = NPYLR7 agonist = 22; NPYLR7 agonist max-min = 5

Shown with values under each structure: part of the list above.
Order of results – NPYLR7 agonist	NPYLR7 agonist max-min
- CCOc1ccc(C(C)=O)cc1Cc1c(O)[nH]c(=S)[nH]c1=O
  3	2
- c1cc(OC2CCCC2)ccc1NC1CN2CCC1CC2 (stereo not given)
  3	0
- O=S(=O)(c1cc(F)cc(F)c1)N1CCN(CCOC(c2ccc(F)cc2)c2ccc(F)cc2)CC1
  4	1
- CC(Cc1ccc(Cl)cc1Cl)NC(=O)CCn1ccnn1 (stereo not given)
  0	-3

High-throughput results deposited in PubChem by Fisher Drug Discovery Resource Center.
